Screens as filed in PubChem.
Yeast UUG start – modulators of yeast start codon fidelity, primary screen, whole organism, S. cerevisiae, single point, plate reader; S. cerevisiae UUG-firefly luciferase reporter, luminescence/redox ratio; activity score, % at 18.7 µM; 0.13% of 350,000 active; AID 602363, 2012;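 active means replicate mean at a twofold rise or more, about +100% in these data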;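 further: firefly luciferase made from a UUG start codon reports start codon fidelity; reporter light over untreated wells divided by growth signal over untreated wells; some hits fall short of that in this replicate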
* = called active by the depositor. A portion of the library; count on the stated rates, not on these rows.

Start of the listing, in advance:
Yeast UUG start,molecule
9,O=C(C[C@H]1CC[C@H]2[C@@H](COC[C@@H](O)CN2S(=O)(=O)c2ccc(Cl)cc2)O1)N[C@H]1CCN(Cc2ccccc2)C1
2,CCNC(=O)C[C@H]1CC[C@@H]2[C@H](COC[C@H](O)CN2C(=O)Nc2ccc3c(c2)OCO3)O1
-5,CNC[C@H]1Oc2ccc(NC(=O)Cn3cnnn3)cc2CC(=O)N([C@@H](C)CO)C[C@@H]1C
-16,CO[C@@H]1CN(C)C(=O)c2ccc(NC(=O)c3cc(C)on3)cc2OC[C@H](C)NC[C@H]1C
-7,CNC[C@H]1Oc2ccc(NC(=O)Nc3ccc(F)cc3)cc2C(=O)N([C@@H](C)CO)C[C@@H]1C
-12,CNC[C@H]1Oc2c(NS(=O)(=O)c3c(C)noc3C)cccc2C(=O)N([C@@H](C)CO)C[C@H]1C
-2,COc1ccccc1CN1[C@H](CO)[C@@H]2c3ccccc3N(C(=O)C3CCCC3)C[C@@H]21
20,C[C@@H]1CN([C@H](C)CO)C(=O)CCCn2nncc2CO[C@@H]1CN(C)C(=O)Nc1ccccc1C(F)(F)F
18,C[C@@H]1CN([C@H](C)CO)C(=O)Cc2cc(NS(=O)(=O)c3ccc(F)cc3)ccc2O[C@@H]1CN(C)CC1CCCCC1
6,C/C=C/c1ccc([C@H]2[C@H](CO)N(C(=O)CC)[C@H]2CN(C)S(C)(=O)=O)cc1
-8,C[C@H]1CN([C@@H](C)CO)C(=O)Cc2cc(NS(=O)(=O)c3ccc(Cl)cc3)ccc2O[C@H]1CN(C)CC1CC1
-5,COc1ccc(S(=O)(=O)Nc2cccc3c2O[C@@H](CN(C)C)[C@@H](C)CN([C@H](C)CO)C3=O)cc1
-4,COc1ccccc1CN1CC[C@@H]2[C@@H](CO)Nc3ccc(-c4cccc(F)c4)cc3[C@@H]21

The list itself (from the top)
Yeast UUG start,molecule
9,O=C(C[C@H]1CC[C@H]2[C@@H](COC[C@@H](O)CN2S(=O)(=O)c2ccc(Cl)cc2)O1)N[C@H]1CCN(Cc2ccccc2)C1
2,CCNC(=O)C[C@H]1CC[C@@H]2[C@H](COC[C@H](O)CN2C(=O)Nc2ccc3c(c2)OCO3)O1
-5,CNC[C@H]1Oc2ccc(NC(=O)Cn3cnnn3)cc2CC(=O)N([C@@H](C)CO)C[C@@H]1C
-16,CO[C@@H]1CN(C)C(=O)c2ccc(NC(=O)c3cc(C)on3)cc2OC[C@H](C)NC[C@H]1C
-7,CNC[C@H]1Oc2ccc(NC(=O)Nc3ccc(F)cc3)cc2C(=O)N([C@@H](C)CO)C[C@@H]1C
-12,CNC[C@H]1Oc2c(NS(=O)(=O)c3c(C)noc3C)cccc2C(=O)N([C@@H](C)CO)C[C@H]1C
-2,COc1ccccc1CN1[C@H](CO)[C@@H]2c3ccccc3N(C(=O)C3CCCC3)C[C@@H]21
20,C[C@@H]1CN([C@H](C)CO)C(=O)CCCn2nncc2CO[C@@H]1CN(C)C(=O)Nc1ccccc1C(F)(F)F
18,C[C@@H]1CN([C@H](C)CO)C(=O)Cc2cc(NS(=O)(=O)c3ccc(F)cc3)ccc2O[C@@H]1CN(C)CC1CCCCC1
6,C/C=C/c1ccc([C@H]2[C@H](CO)N(C(=O)CC)[C@H]2CN(C)S(C)(=O)=O)cc1
-8,C[C@H]1CN([C@@H](C)CO)C(=O)Cc2cc(NS(=O)(=O)c3ccc(Cl)cc3)ccc2O[C@H]1CN(C)CC1CC1
-5,COc1ccc(S(=O)(=O)Nc2cccc3c2O[C@@H](CN(C)C)[C@@H](C)CN([C@H](C)CO)C3=O)cc1
-4,COc1ccccc1CN1CC[C@@H]2[C@@H](CO)Nc3ccc(-c4cccc(F)c4)cc3[C@@H]21
-5,C[C@H]1CN([C@@H](C)CO)C(=O)c2cccc(NS(=O)(=O)c3ccc(Cl)cc3)c2O[C@H]1CN(C)C
16,COc1ccc(-c2ccc3c(c2)[C@@H]2[C@@H](CCN2C(=O)C2CCOCC2)[C@H](CO)N3C)cc1
2,CCCNC(=O)C[C@H]1CC[C@H]2[C@@H](COC[C@H](O)CN2C(=O)c2cc(Cl)cc(Cl)c2)O1
0,CO[C@@H]1CN(C)C(=O)c2cc(NC(=O)c3nc4ccccc4s3)ccc2OC[C@@H](C)N(Cc2cccnc2)C[C@@H]1C
-16,C[C@@H]1CN([C@H](C)CO)C(=O)c2cccc(NC(=O)Nc3ccccc3)c2O[C@@H]1CN(C)C(=O)NC1CCCCC1
-3,CCCC#Cc1ccc([C@@H]2[C@H]3CN(Cc4ccncc4)CCCCN3[C@H]2CO)cc1
2,CCC(=O)NC[C@H]1[C@H](c2ccc(C3=CCCC3)cc2)[C@H](CO)N1C(=O)C1CC1
-3,C[C@H](NC(=O)[C@H]1[C@H](CO)[C@H]2Cn3c(cccc3=O)[C@H]2N1CC1CC1)c1ccccc1
14,O=C(c1ccccn1)N1C[C@@H]2[C@H](c3ccccc31)[C@@H](CO)N2C(=O)Nc1ccccc1
1,CC(C)NC(=O)Nc1ccc2c(c1)CC(=O)N([C@H](C)CO)C[C@@H](C)[C@@H](CN(C)S(=O)(=O)c1ccc(Cl)cc1)O2
-4,N#Cc1cccc(-c2ccc3c(c2)[C@H]2[C@H](CCN2C(=O)c2ccncc2)[C@H](CO)N3)c1
4,CO[C@@H]1CN(C)C(=O)c2cc(NC(=O)Nc3ccc(Cl)cc3)ccc2OC[C@@H](C)NC[C@@H]1C
1,O=S(=O)(c1ccccc1F)N1CCCCN2[C@H](C1)[C@H](c1ccc(-c3ccccc3)cc1)[C@@H]2CO
2,COCC(=O)N1CC[C@@H]2[C@@H](CO)N(C)c3ccc(-c4cccc(F)c4)cc3[C@@H]21
-3,COc1ccc(S(=O)(=O)Nc2cccc3c2O[C@@H](CN(C)Cc2ccncc2)[C@H](C)CN([C@@H](C)CO)C3=O)cc1
2,CCCC(=O)Nc1ccc2c(c1)C(=O)N(C)C[C@@H](OC)[C@@H](C)CN(Cc1ccccc1F)[C@H](C)CO2
-16,CC(C)NC(=O)N(C)C[C@H]1OCc2ccccc2-c2c(n(C)c3ccccc23)C(=O)N([C@H](C)CO)C[C@@H]1C
9,C[C@H]1CN([C@@H](C)CO)C(=O)c2cccc(NS(=O)(=O)c3ccc(F)cc3)c2O[C@@H]1CN(C)S(=O)(=O)c1cccs1
4,CN1c2ccc(-c3ccccc3)cc2[C@H]2[C@H](CCN2C(=O)CC2CC2)[C@@H]1CO
-5,CC1C=NC(S(=O)(=O)N2CC[C@H]3[C@@H](CO)N(C)c4ccc(-c5cccc(F)c5)cc4[C@H]32)=N1 (stereo partly specified)
167*,C[C@@H]1CN([C@@H](C)CO)C(=O)c2cc(C#CCc3ccccc3)cnc2O[C@H]1CN(C)CC1CCCC1
9,COCCNC[C@@H]1[C@@H](c2ccccc2)[C@@H](CO)N1c1nc(C)c(C)s1
2,CO[C@@H]1CN(C)C(=O)c2cc(NC(=O)c3cc(C)on3)ccc2OC[C@H](C)N(C(C)=O)C[C@@H]1C
-6,CCCC(=O)Nc1ccc2c(c1)OC[C@@H](C)N(Cc1cccc(F)c1)C[C@@H](C)[C@@H](OC)CN(C)C2=O
-11,COc1ccccc1C(=O)Nc1ccc2c(c1)C(=O)N(C)[C@@H]1CC[C@@H](CC(=O)NCc3ccc(Cl)c(Cl)c3)O[C@H]1CO2
4,O=C(Nc1cccc(F)c1)N1C[C@@H]2[C@H](c3ccccc31)[C@H](CO)N2C(=O)c1ccccn1
13,C[C@H](CO)N1C[C@H](C)[C@@H](CN(C)S(=O)(=O)c2ccc(C#N)cc2)OCc2ccccc2-c2c(n(C)c3ccccc23)C1=O
-9,C[C@@H]1CN([C@H](C)CO)C(=O)Cc2cc(NC(=O)c3ccncc3)ccc2O[C@@H]1CN(C)CC1CCCCC1
-16,CN(C)C(=O)c1cccc(-c2ccc([C@@H]3[C@@H](CO)N4CCCCN(C(=O)C5CCC5)C[C@H]34)cc2)c1
-1,COCC(=O)N1C[C@@H](C)[C@H](OC)CN(C)C(=O)c2cc(NC(=O)c3ccccc3)ccc2OC[C@@H]1C
-1,C[C@@H]1CN([C@H](C)CO)C(=O)Cc2cc(NC(=O)Cc3cn(C)c4ccccc34)ccc2O[C@H]1CN(C)C
-4,Cc1noc(C)c1NC(=O)N(C)C[C@H]1Oc2c(NS(=O)(=O)c3cccs3)cccc2C(=O)N([C@@H](C)CO)C[C@@H]1C
-2,C[C@@H]1CN([C@H](C)CO)C(=O)c2cc(NS(=O)(=O)c3ccc(F)cc3)ccc2O[C@@H]1CN(C)C
11,C[C@@H]1CN([C@@H](C)CO)C(=O)c2cc(NC(=O)Cc3ccccc3)ccc2O[C@H]1CN(C)S(=O)(=O)c1cccs1
8,CC(C)CC#Cc1ccc([C@H]2[C@@H](CO)N3CCCCN(C(=O)c4ccc5c(c4)OCO5)C[C@@H]23)cc1
-5,CS(=O)(=O)N1CCCCN2[C@H](C1)[C@@H](c1ccc(C#Cc3ccccn3)cc1)[C@@H]2CO
14,C[C@@H]1CN([C@@H](C)CO)C(=O)Cc2cc(NC(=O)CCC(F)(F)F)ccc2O[C@@H]1CN(C)C(=O)Nc1ccc(F)cc1

The list continues:
Yeast UUG start,molecule
-5,CC(C)NC(=O)Nc1cccc2c1O[C@@H](CN(C)Cc1ccncc1)[C@@H](C)CN([C@@H](C)CO)C2=O
11,C[C@@H]1CN([C@H](C)CO)C(=O)c2cccc(NC(=O)Nc3ccc4c(c3)OCO4)c2O[C@@H]1CN(C)S(=O)(=O)c1cccs1
6,C/C=C/c1ccc([C@@H]2[C@@H](CN(C)C(C)=O)N(C(=O)NC(C)C)[C@H]2CO)cc1
8,C[C@H](CO)N1C[C@H](C)[C@H](CN(C)C(=O)c2ccc(F)cc2)OCc2ccccc2-c2c(n(C)c3ccccc23)C1=O
-8,COCC(=O)Nc1ccc2c(c1)OC[C@@H](C)N(Cc1ccncc1)C[C@@H](C)[C@H](OC)CN(C)C2=O
12,CN1c2ccc(Br)cc2[C@H]2[C@H](CCN2S(=O)(=O)c2ccc(F)cc2)[C@H]1CO
12,CCNC(=O)C[C@H]1CC[C@@H]2[C@@H](COc3ccc(NC(=O)Nc4ccccc4Cl)cc3C(=O)N2C)O1
3,CC(C)NC(=O)N(C)C[C@H]1Oc2c(NC(=O)c3cnccn3)cccc2C(=O)N([C@@H](C)CO)C[C@H]1C
14,O=C(c1cccc(F)c1)N1CCCCN2[C@@H](CO)[C@H](c3ccc(-c4ccncc4)cc3)[C@@H]2C1
8,CCC(=O)N1C[C@@H](C)[C@@H](OC)CN(C)C(=O)c2ccc(NC(=O)c3ccc(F)cc3)cc2OC[C@@H]1C
1,CCCN1[C@@H]2Cn3c(ccc(-c4ccccc4)c3=O)[C@H]1[C@@H](C(=O)NCCCN1CCOCC1)[C@@H]2CO
15,CC(C)NC(=O)Nc1cccc2c1O[C@@H](CN(C)S(=O)(=O)c1ccccc1)[C@@H](C)CN([C@@H](C)CO)C2=O
7,C[C@@H](O)C#Cc1ccc([C@H]2[C@@H](CO)N3CCCCN(S(=O)(=O)c4ccccc4)C[C@@H]23)cc1
5,Cc1ccccc1S(=O)(=O)N1CC[C@H]2[C@H](CO)Nc3ccc(C#Cc4ccccc4)cc3[C@H]21
-15,OC[C@H]1[C@H](c2ccc(-c3ccccc3F)cc2)[C@H]2CN(Cc3cccnc3)CCCCN21
-9,C[C@H]1CN([C@@H](C)CO)C(=O)c2cccc(NC(=O)Nc3ccc4c(c3)OCO4)c2O[C@H]1CN(C)C
3,CO[C@@H]1CN(C)C(=O)c2cc(NS(C)(=O)=O)ccc2OC[C@H](C)N(C(=O)C2CCCCC2)C[C@H]1C
1,OC[C@@H]1[C@@H](c2ccc(C#Cc3ccccc3F)cc2)[C@H]2CN(CC3CCOCC3)CCCCN12
-11,COc1ccc(S(=O)(=O)N2CC[C@@H]3[C@@H](CO)Nc4ccc(-c5ccccc5F)cc4[C@@H]32)cc1
-13,OC[C@@H]1Nc2ccc(C#Cc3ccc(F)cc3)cc2[C@H]2[C@@H]1CCN2Cc1nccs1
-7,O=C(CN1CCOCC1)N1[C@H](CO)[C@@H]2c3ccccc3NC[C@@H]21
15,COc1ccc(NC(=O)N2C[C@H](O)COC[C@@H]3O[C@@H](CC(=O)NC4Cc5ccccc5C4)CC[C@H]32)cc1
-3,Cc1ccccc1S(=O)(=O)N1CCCCN2[C@@H](CO)[C@H](c3ccc(-c4cncnc4)cc3)[C@@H]2C1
-2,CCCC#Cc1ccc([C@H]2[C@@H](CO)N3CCCCN(S(=O)(=O)CC)C[C@H]23)cc1
12,Cc1noc(C)c1S(=O)(=O)Nc1ccc2c(c1)CC(=O)N([C@@H](C)CO)C[C@H](C)[C@@H](CN(C)C)O2
-5,CO[C@@H]1CN(C)C(=O)c2cc(NC(=O)Nc3ccccc3F)ccc2OC[C@@H](C)NC[C@@H]1C
-12,CN1c2ccc(Br)cc2[C@@H]2[C@@H](CCN2C(=O)c2ccc(F)cc2)[C@H]1CO
8,Cc1ccc(S(=O)(=O)N2C[C@H](O)COC[C@H]3O[C@H](CC(=O)NCc4ccc(Cl)c(Cl)c4)CC[C@@H]32)cc1
9,O=C(C[C@@H]1C[C@@H]2c3cc(NC(=O)Cc4ccncc4)ccc3O[C@@H]2[C@H](CO)O1)NCc1ccncc1
2,C[C@@H]1CN([C@H](C)CO)C(=O)CCCn2nncc2CO[C@H]1CN(C)C(=O)Nc1ccc(F)cc1
1,CN1c2ccc(-c3cccc(F)c3)cc2[C@@H]2[C@@H](CCN2C(=O)C2CCOCC2)[C@@H]1CO
-1,COc1cccc(-c2ccc([C@@H]3[C@H]4CN(CC5CC5)CCCCN4[C@H]3CO)cc2)c1
-8,COc1ccccc1NC(=O)N1C[C@@H](O)COC[C@H]2O[C@@H](CC(=O)NCCc3ccccc3)CC[C@@H]21
